Source: PubChem BioAssay
Mtb betalactam: beta-lactam sensitization of Mtb H37Rv, H37Rv; M. tuberculosis H37Rv growth with meropenem, percent inhibition; hits of this screen are not shown here; inhibition, % at 25 µM; 330,000 tested, 0.27% active; AID 434955, 2010;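 active = about 74% or more and at least 40 points above the plate without the antibiotic, then above 30% in a dose series; inconclusive = first-round hits that could not be retested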;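 note: growth measured after seven days incubation then overnight dye step; 0% = bacteria only wells and 100% = bacteria with antibiotic; twin plates without the antibiotic show which effects depend on it; some results filed as inactive read as strong as hits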
The depositor's hits bear a star; u = inconclusive.

SMILES	Mtb betalactam
CC(C)(C)OC(=O)C[C@@H]1C/C=C\C[C@H](CC(=O)NCCO)C(=O)N2CCC[C@H]2COC1=O	-2.7
Cc1ccc(NC(=O)CN(C)C(=O)COC(=O)c2ccc(Cl)cc2O)cc1	-5.5
C[C@H](CO)N1C[C@H](C)[C@@H](CN(C)S(=O)(=O)c2cccs2)Oc2ccc(NC(=O)NC3CCCCC3)cc2C1=O	-2.7
Cc1c(C)c2ccc(OCC(=O)N3CCN(Cc4ccccc4)CC3)cc2oc1=O	0.4
CC(=O)c1c(C)[nH]c(C(=O)COC(=O)CN2C(=O)C3CCCCC3C2=O)c1C (stereo not given)	1.4
CCCNC(=O)C(Cc1ccc(C(F)(F)P(=O)(OCC)OCC)cc1)NC(=O)c1ccc(C#N)cc1 (stereo not given)	2.8
CCN(C(=O)COC(=O)CCCOc1ccccc1)c1c(N)n(Cc2ccccc2)c(=O)[nH]c1=O	2.8
CCn1nc(C(=O)NCC2COc3ccccc3O2)c2ccccc2c1=O (stereo not given)	1.4
Cc1cc(C(=O)NC2CC(C)(C)Cc3c2cnn3-c2ccc(F)cc2)no1 (stereo not given)	-5.2
CN(Cc1ccc(CNC[C@H]2O[C@@H](n3cnc4c(N)ncnc43)[C@H](O)[C@@H]2O)o1)S(C)(=O)=O	-3.2
Cc1ccnc2nc(C(=O)OCC(=O)NC3CCC(C)CC3)nn12 (stereo not given)	0.2
NCCc1ccc(OCc2ccccc2)c(OCc2ccccc2)c1	59.5
Cc1noc(C)c1NC(=O)N(C)C[C@H]1Oc2ccc(NC(=O)Nc3ccc(C(F)(F)F)cc3)cc2C(=O)N([C@H](C)CO)C[C@@H]1C	5.7
CC(C)CN(C(=O)COC(=O)/C=C/c1ccccc1)C1CCS(=O)(=O)C1 (stereo not given)	-7.1
COC(=O)C1CCN(C(=O)COC(=O)CNS(=O)(=O)c2ccc(SC)c([N+](=O)[O-])c2)CC1	1.2
O=C(O)CCN(CC(=O)c1ccc(Cl)cc1)S(=O)(=O)c1ccc([N+](=O)[O-])cc1	5.7
Cc1cc(C(=O)OCC(=O)N2CCc3ccccc32)ccc1[N+](=O)[O-]	-6.5
CCCCNc1ccc2oc(-c3ccc(OC)cc3)c(-c3ccc(OC)c(F)c3)c2c1	-10.8
Cc1cccc(N(C(=O)c2snc(C(N)=O)c2N)C(C(=O)NCC2CCCO2)c2ccc3ncccc3c2)c1 (stereo not given)	0.1
C=CCc1cccc(C=Nc2c[nH]c(=O)[nH]c2=O)c1O	-0.2
O=C(CN(Cc1ccco1)C(=O)c1cccc(F)c1)Nc1ccccc1C(F)(F)F	-5.7
CN(Cc1ccccc1)C(=O)c1cccc(NC(=O)C2CCCN(C(=O)OC(C)(C)C)C2)c1 (stereo not given)	-0.6
CCN(C[C@H]1N[C@@](C)(C(=O)OC)[C@H]2C(=O)N(Cc3ccccc3)C(=O)[C@@H]12)C(=O)c1ccc(C(C)(C)C)cc1	1.1
O=C(NCC(c1ccc(F)cc1)N1CCOCC1)c1ccc(OCc2ccccc2)cc1 (stereo not given)	10.0
CCCCN(C(=O)Cc1ccc2c(c1)OCCO2)c1c(N)n(CCC)c(=O)[nH]c1=O	-8.5
SMILES	Mtb betalactam
CSc1nc(N)nc2c1ncn2CC(=O)N1CCN(Cc2c(C)cc(C)cc2C)CC1	13.5
Cc1cc(NC(=O)CSCC(=O)N2CCN(c3cccc(C)c3C)CC2)no1	0.8
COc1ccc(NS(=O)(=O)c2ccc(NC(=O)c3ccccn3)cc2)cc1	-5.8
NC(=O)c1cc[n+](CC(=O)NC(=O)Nc2ccccc2)cc1	-0.2
COc1ccccc1CNC(=O)COC(=O)c1ccc(C(=O)c2ccccc2)cc1	63.5
CCN(CC(=O)NC1CCS(=O)(=O)C1)C(=O)c1cc(OC)c(OC)c(OC)c1 (stereo not given)	-4.2
C=CCN(Cc1ccc(Cl)s1)C(=O)c1cc(S(=O)(=O)N2CCOCC2)ccc1F	4.4
CCC(CO)Oc1cc(NC(=O)c2ccccc2Cl)c2ncn(C(C)C)c2c1 (stereo not given)	-4.2
COc1cc(OC)cc(-c2c(-c3cccs3)c3cc(-c4ccc(OC)c(F)c4)ccc3n2C)c1	-5.8
CC1(C)O[C@@H](CC(=O)O)[C@]23CO[C@H](C(=O)[C@]4(C)C2CC[C@@]2(C)[C@H](c5ccoc5)OC(=O)C5O[C@]524)[C@@H]13 (stereo not given in full)	1.8
O=C1C=C(c2ccc(OC(F)(F)F)cc2)C[C@@H](c2ccc(F)cc2)C1	52.2
Cc1ccc(N(Cc2ccccc2)C(=O)c2cc(S(=O)(=O)N3CCOCC3)ccc2F)cc1	5.9
COc1ccc2sc(-c3ccccc3OC)c(C#CCCO)c2c1	34.6
C=C[C@H]1C(O[C@@H]2O[C@H](CO)[C@@H](O)[C@H](O)[C@H]2O)OC=C2C(=O)N3CCc4cc(OC)c(O)cc4[C@H]3C[C@H]21 (stereo not given in full)	0.1
Cc1cc(SCC(=O)NCCCN2CCCC2=O)nc2ccccc12	4.6
Cc1c(NC(=O)c2cc(-c3ccc(F)cc3)nc3ccccc23)c(=O)n(-c2ccccc2)n1C	2.6
CC(C)(C)c1ccc(C(=O)NC(=O)COC(=O)c2ccc(Br)o2)cc1	1.1
N#CC1(NC(=O)Cn2cc(C(F)(F)F)cc(Cl)c2=O)CCCCC1	-8.2
O=C(C1COc2ccccc2O1)N1CCN(S(=O)(=O)c2cc(F)ccc2F)CC1 (stereo not given)	-6.0
CC(C)(C)c1ccccc1OCC(=O)Nc1ccccc1C(=O)NCc1cccnc1	10.4
O=S(=O)(c1cccc(Cl)c1)N1CCSc2ccccc21	0.9
Cc1ccc(NC(=O)COc2cccc(-n3cnnn3)c2)cc1S(=O)(=O)N1CCOCC1	-2.1
C=CCN(C(=O)OC(C)(C)C)S(=O)(=O)NCc1ccccc1	-1.4
CC(CCl)OC(C)CCl (stereo not given)	-7.8
COc1ccc(C(=O)NCC(=O)NCc2ccncc2)cc1	2.6
SMILES	Mtb betalactam
O=C(CSc1nnc(C2CC2)n1CC1CCCO1)Nc1ccc(Cl)cc1 (stereo not given)	6.1
O=S(=O)(NCc1ccc(F)cc1)c1cc(Br)ccc1Br	-0.5
COc1cccc(CNC(=O)COC(=O)c2cc(Br)c(Br)s2)c1	93.4
O=C(NCc1ccco1)C1CCN(S(=O)(=O)c2ccccc2C(F)(F)F)CC1	0.7
COc1ccc(C2=NOC(Cn3nc(-c4ccccc4)cc3C(=O)NCc3cccc(C(F)(F)F)c3)C2)cc1 (stereo not given)	-0.5
CN(C)S(=O)(=O)c1ccc(Cl)c(C(=O)NNC(=O)Cc2nc3ccccc3n2C)c1	-3.1
O=C(/C=C/c1ccco1)OCC(=O)N1CCCCC1	1.1
CC1CCCCC12NC(=O)N(CC(=O)Nc1ccc3c(c1)OCCCO3)C2=O (stereo not given)	-1.6
COc1ccc(Cc2nc3ccc(C(=O)N(C)C(C)c4ccon4)cc3o2)cc1 (stereo not given)	6.2
COc1ccc(S(=O)(=O)N2CCN(c3cnccn3)CC2)cc1	-0.3
O=C(C[C@H]1C/C=C\C[C@@H](Cc2ccc(F)cc2)C(=O)O[C@@H](c2ccccc2)CNC1=O)NCCO	2.0
COc1cccc(N2CCN(C(=O)c3cc4c(s3)CCCCC4)CC2)c1	-11.4
CN(C)c1ccc(S(=O)(=O)N2CCCCC2)cc1NC(=O)C1CSC2(C)CCC(=O)N12 (stereo not given)	2.7
CC(C)COc1cccc(C(=O)N(CC(=O)Nc2ccccc2C(F)(F)F)Cc2ccco2)c1	-0.1
COc1ccc(Br)cc1S(=O)(=O)NCCc1cccs1	1.8
CCC(C)CCN1CCN=C1Nc1ccccc1 (stereo not given)	-4.3
O=C(CN1C(=O)NC2(CCCc3ccccc32)C1=O)NCCc1ccc(F)cc1 (stereo not given)	2.6
CCC1CCCCN1C(=O)COC(=O)c1cc(=O)[nH]c2ccccc12 (stereo not given)	-2.8
C[C@H](CO)N1C[C@H](C)[C@@H](CN(C)S(=O)(=O)c2cccs2)Oc2c(NC(=O)Nc3ccccc3)cccc2C1=O	0.0
O=S(=O)(c1ccccc1C(F)(F)F)N1CCN(c2ncnc3sccc23)CC1	-3.3
O=C(c1ccccc1OC(F)F)N1CCN(S(=O)(=O)c2ccc3c(c2)OCCCO3)CC1	0.3
CN(c1ccccc1)S(=O)(=O)c1cccc(C(=O)NC2CCCCC2)c1	-10.1
O=C(Cn1ccnc1)c1ccc(O)c(O)c1	-6.9
COC(=O)C1=C(c2ccc(OC(F)(F)F)cc2)C[C@@H]2CC[C@H]1N2C(=O)N1CCC(C)CC1	9.7
CCCN(CC(=O)Nc1ccccc1OC)C(=O)c1ccc2[nH]c3c(c2c1)CC(C)CC3 (stereo not given)	13.0
SMILES	Mtb betalactam
O=C(NC1CCN(Cc2ccccc2)CC1)c1cccc(S(=O)(=O)Nc2ccc(F)cc2)c1	4.7
COc1ccc(S(=O)(=O)Nc2ccc3c(c2)C(=O)N([C@@H](C)CO)C[C@H](C)[C@H](CN(C)CC2CC2)O3)cc1	7.5
CC[C@]12c3[nH]c4ccccc4c3CCN1C(=O)C(CC(=O)NCCCn1ccnc1)C[C@@H]2C(=O)N1CCN(C(=O)c2ccco2)CC1 (stereo not given in full)	-7.5
C[C@H](CO)N1C[C@H](C)[C@@H](CN(C)C(=O)Nc2ccccc2)Oc2c(NS(=O)(=O)c3ccccc3)cccc2C1=O	-1.9
CCOc1ccc(S(=O)(=O)N2CCCCC2)cc1NC(=O)Cc1ccccc1	-5.8
Cc1cc(C)cc(C(=O)NCC(=O)NNC(=O)CSc2ccccc2F)c1	6.2
O=C(CCCN1C(=O)/C(=C\c2ccccc2)SC1=S)N1CCOCC1	8.1
O=C(CSc1nncs1)Nc1ccc(N2CCCCC2)cc1	6.0
COc1ccc(OC)c(N(CC(=O)NC2CCCC2)S(=O)(=O)c2ccc(OC)c(OC)c2)c1	u
Cc1ccc(S(=O)(=O)N2CCCCC2)cc1C(=O)OCC(=O)N1c2ccccc2NC(=O)C1(C)C	-0.3
Cc1ccc(NS(=O)(=O)c2ccc(C)c(C(=O)NCC(c3ccccc3)N(C)C)c2)cc1 (stereo not given)	-2.0
O=C(Cn1cnc2ccccc2c1=O)NC1CCS(=O)(=O)C1 (stereo not given)	0.5
O=C(c1cccc(S(=O)(=O)N2CCOCC2)c1)N1CCN(c2ccccc2)CC1	-9.6
Cn1c2cc(Br)sc2c2cnn(Cc3ccc(F)cc3F)c(=O)c21	-4.8
Cc1cccc(N2CCN(C(=O)CNC(=O)Cc3ccccc3)CC2)c1C	-11.5
COc1ccc2[nH]c(C)c(CCNCc3cccnc3)c2c1	-2.7
COc1cccc(CNC(=O)Cn2nc(C)c([N+](=O)[O-])c2C)c1	3.3
CC(C)(C)Nc1nc(SCC(=O)Nc2ccccc2Cl)nc(N2CCOCC2)n1	u
O=C(COC(=O)Cn1cnc2ccccc2c1=O)NNC(=O)c1ccc(Br)cc1	-0.9
CSc1ncccc1C(=O)Nc1cc(Cl)ccc1N1CCOCC1	0.7
CC(C)[C@@]1(c2ccccc2)ON(c2ccccc2C(F)(F)F)C1=O	-2.1
O=C(CSc1nc2[nH]c(=O)cc(O)c2s1)Nc1nccs1	-9.3
COc1ccccc1NS(=O)(=O)c1ccc(C(=O)N2CCCC(C(F)(F)F)C2)cc1 (stereo not given)	1.3
CC1CCN(C(=O)c2[nH]cnc2C(=O)Nc2cccc(Cl)c2)CC1	-0.9
O=C(OCC(=O)N1CCCCC1)c1ccc2ccccc2n1	18.4

Sorted by molecular weight (low to high): five of the compounds above
SMILES	Mtb betalactam
COc1cccc(CNC(=O)Cn2nc(C)c([N+](=O)[O-])c2C)c1	3.3
Cc1cccc(N2CCN(C(=O)CNC(=O)Cc3ccccc3)CC2)c1C	-11.5
CCOc1ccc(S(=O)(=O)N2CCCCC2)cc1NC(=O)Cc1ccccc1	-5.8
O=C(c1cccc(S(=O)(=O)N2CCOCC2)c1)N1CCN(c2ccccc2)CC1	-9.6
COc1ccc(OC)c(N(CC(=O)NC2CCCC2)S(=O)(=O)c2ccc(OC)c(OC)c2)c1	u

Following part
SMILES	Mtb betalactam
O=C(CNC(=O)C12CC3CC(CC(C3)C1)C2)Nc1ncccc1O	2.3
CCOC(=O)C1=CC[C@H]2c3c(c4ccccc4n3C)C(=O)C1N2Cc1ccccc1	3.3
COc1ccc(OCCOC(=O)c2ccc(F)c(S(=O)(=O)N3CCOCC3)c2)cc1	-2.3
CC(C)(C)OC(=O)NCCCCCc1cn(CC(=O)NCCCCCCCCCCC(=O)N2CCN(C(=O)OC(C)(C)C)CC2)nn1	0.6
O=C(CN1CCSC1=O)N1CCN(S(=O)(=O)c2ccccc2)CC1	-4.7
C[C@H](CO)N1C[C@H](C)[C@@H](CN(C)C(=O)Nc2ccccc2)Oc2ccc(NC(=O)c3ccncc3)cc2C1=O	-0.7
O=C(c1ccc(S(=O)(=O)NCc2ccco2)cc1)N1CCN(c2ccc(F)cc2)CC1	-1.2
CSCCC(NC(=O)c1ccco1)C(=O)N1CCN(c2ccccc2O)CC1 (stereo not given)	-4.7
CN(Cc1ccccc1F)C(=O)c1ccc(NS(=O)(=O)c2ccc3[nH]c(=O)[nH]c3c2)cc1	-0.2
COC(=O)c1nc(-c2ccccc2)nc(-c2ccccc2)c1C(=O)OC	-5.9
CCc1nnc(NC(=O)CN2C(=O)NC3(CCCC3)C2=O)s1	-9.4
CC(=O)c1ccc(N2CCN(C(=O)c3cc(S(=O)(=O)N4CCOCC4)ccc3C)CC2)cc1	-4.2
O=C(NNC(=O)c1ccc(Br)s1)c1cccc(S(=O)(=O)N2CCCC2)c1	3.0

Some of the entries so far, bar-delimited.
compound | Mtb betalactam
O=C(CNC(=O)C12CC3CC(CC(C3)C1)C2)Nc1ncccc1O | 2.3
CSCCC(NC(=O)c1ccco1)C(=O)N1CCN(c2ccccc2O)CC1 (stereo not given) | -4.7
O=C(CN1CCSC1=O)N1CCN(S(=O)(=O)c2ccccc2)CC1 | -4.7
CN(Cc1ccccc1F)C(=O)c1ccc(NS(=O)(=O)c2ccc3[nH]c(=O)[nH]c3c2)cc1 | -0.2

Not all compounds are listed; count on the stated rates, not on these rows.
